# Bioassay records as filed in PubChem.
# AmpC inh no det: blocks E. coli AmpC beta-lactamase in absence of detergent; 71,000 tested, 1.8% active; Potency, µM (doses to about 28.7 µM), for inactives: at the highest dose activity change, negative = inhibition; P00811; AmpC nitrocefin hydrolysis, absorbance 480 nm, no detergent; potencies from a single point are estimates; active = falling curve, for most hits resting on a single point; inconclusive = weak or doubtful change; inactive = flat or rising curve; note: % of control where 0% means no effect; about half of the hits show no inhibition at the top dose; a quarter of the inactives give rising signals
# Target sequence (P00811 whole entry, looked up): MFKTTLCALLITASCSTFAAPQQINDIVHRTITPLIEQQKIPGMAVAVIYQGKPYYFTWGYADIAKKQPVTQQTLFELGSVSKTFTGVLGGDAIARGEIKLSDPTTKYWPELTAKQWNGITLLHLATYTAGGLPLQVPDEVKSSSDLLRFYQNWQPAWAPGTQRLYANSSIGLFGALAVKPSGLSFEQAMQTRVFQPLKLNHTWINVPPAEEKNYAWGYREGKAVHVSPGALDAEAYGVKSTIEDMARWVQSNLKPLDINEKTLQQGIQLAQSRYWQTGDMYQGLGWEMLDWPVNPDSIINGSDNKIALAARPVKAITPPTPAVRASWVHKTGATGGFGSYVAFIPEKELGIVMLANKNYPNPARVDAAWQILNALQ
#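 Enzyme, pH 7.0 phosphate. Compound titrations were pre-incubated with AmpC for 15 min at room temperature before nitrocefin (stock 800 uM) addition; product formation was recorded at 480 nm every 20 s for 4 min.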
# The depositor's hits bear a star; u = inconclusive; [ ] = another dose, or the depositor's remark. Potency is the fitted concentration of half-maximal effect. A portion of the library; count on the stated rates, not on these rows.
SMILES	AmpC inh no det
Cc1cc2ncn(CC(=O)O)c2cc1C	-3.6%[5.75 µM]
CCNS(=O)(=O)c1ccc(NC(=O)Nc2cccc(OC)c2)cc1	-15.9%
O=C(Nc1ccc(O)cc1)c1cc2n(n1)C(C(F)(F)F)CC(c1ccco1)N2 (stereo unspecified)	13.2%
COCCNC(=O)COc1cc(=O)n(C)c2ccccc12	1.8%
CCCC(=O)NCCSC	2.1%
Cc1ccc2nc(N3CCN(C)CC3)[nH]c2c1	-9.2%
COc1cccc(CNC(=O)CCCNS(=O)(=O)c2cccs2)c1	-0.4%
CN(C)C(=O)c1ccc(-c2cncnc2-n2ccnc2)cc1	-0.2%
CCNCCC1(CC)C(=O)NC(=O)NC1=O	-6.1%[5.75 µM]
CC1Cn2c(nc3c2c(=O)[nH]c(=O)n3C)O1 (stereo unspecified)	-14.3%
Cc1nc2nc[nH]n2c(=O)c1CCC(C)C	-4.7%
Clc1cc(Cl)c2nc(N3CCCC3)sc2c1	70.2%
O=c1[nH]c(-c2cccnc2)nc2ccccc12	0.9%
CN(C)C(=O)CN1C(=O)C2CC=C(Cl)CC2C1=O (stereo unspecified)	-8.1%
NCC(=O)Nc1ccc(Cl)cc1C(=O)c1ccc[nH]1	1.4%[5.75 µM]
C[C@@]12CC[C@H]3[C@@H](CCC4=C(O)C(=O)CC[C@]43C)[C@H]1CCC2=O	3.6%
COC(=O)CN(C#N)c1nc(SC)nc(N(C)C)n1	2.9%
Cc1nn(Cc2ccccc2)c2sc(C(=O)N3CCN(Cc4ccc5c(c4)OCO5)CC3)cc12	95.9%
NCCCNCCSP(=O)(O)O	-6.0%
O=C(CN1CCN(C2CCCCC2)CC1)NCCC1=CCCCC1	12.4%
Cc1cc(C(=O)OCC(=O)N2CC(C)CC(C)C2)c(C)o1 (stereo unspecified)	55.2%
COc1cccc(NC(=O)c2ccncc2)c1	-5.0%
O=C(O)c1ccc(SSc2ccc(C(=O)O)cn2)nc1	-4.6%[5.75 µM]
COc1ccccc1CN1C(=O)c2ccncc2C1=O	0.3%
CCOC(=O)Cc1csc(NC(=O)CN(C)S(=O)(=O)c2ccc3c(c2)CCC(=O)N3)n1	3.98µM*[single pt active]
O=C(NCc1ccc2c(c1)OCO2)c1c(F)c(F)c(F)c(F)c1F	2.8%
O=C(NCCc1ccccc1)c1ccc(Br)o1	-12.6%
CCCCC/C=C/C=C/C=O	-5.3%
COc1cccc2cc(C(=O)N(C)C3CCN(C)CC3)c(=O)oc12	1.9%
O=C(Cn1nnc(-c2ccc(Cl)cc2)n1)NC1CCN(Cc2ccccc2)CC1	57.8%
COCCOC(=O)C1=C(N)OC2=C(C(=O)CCC2)C1c1cccnc1 (stereo unspecified)	-8.6%
O=C(Nc1ccc(F)cc1)c1cc(S(=O)(=O)N2CCCCC2)cs1	-7.3%
Cc1cc(NC(=O)Cc2cccs2)nn1CC(=O)NCc1ccco1	-6.2%
COc1cc(C)c(S(=O)(=O)NC2CC(C)(C)NC(C)(C)C2)cc1C	-6.2%
COc1ccc(C)cc1S(=O)(=O)N(C)CC(N)=O	-2.2%
CC(=O)Nc1nc(C)nc(-c2ccccc2)c1C(C)=O	-4.7%
COc1ccccc1N1CCN(C(=O)c2cnn3cccnc23)CC1	-0.7%
CCn1c(SCC(=O)c2ccccc2)nc2c(c1=O)SC(C)C2 (stereo unspecified)	12.7%
COCCN1C(=O)c2ccccc2C(C(=O)N2CCN(c3ccccn3)CC2)C1c1ccc(F)cc1 (stereo unspecified)	73.2%
Cc1ccc(NC(=O)CSCC(=O)O)c(C)c1	-2.2%
COc1ccc(N2CCN(S(=O)(=O)c3ccc(C(=O)NC4CCCC4)cc3)CC2)cc1	1.8%
COc1cccc(OCCSc2nnc3sc4ccccc4n23)c1	39.7%
CCOC(=O)c1sc2c(c1C)C(c1cccs1)C1=C(CCCC1=O)N2 (stereo unspecified)	2.1%
COCCn1c(C)cc(C(=O)CN2C(=O)NC3(CCCCCCC3)C2=O)c1C	44.7%
CC1CCCC(C)N1CCCNC(=O)c1cc2c(=O)n(C)c3ccccc3c2n1C (stereo unspecified)	3.16µM*[single pt active]
O=C(CN(C1CC1)S(=O)(=O)c1ccc(S(=O)(=O)NC2CCCCC2)cc1)Nc1ccccc1	-22.0%
COc1ccc(NC(=O)CCN2CCCCC2)cc1	-24.4%
COc1cc(NC(=O)Nc2cccc(C(C)=O)c2)cc(OC)c1OC	-19.4%
O=C(COc1cccc(NC(=O)c2ccco2)c1)c1ccccc1	-1.5%
O=C(O)CC(NS(=O)(=O)c1ccc(Br)cc1)c1ccco1 (stereo unspecified)	-18.6%

# (more compounds)
SMILES	AmpC inh no det
COc1ccc(OC)c(N(CC(=O)NCc2cccnc2)S(C)(=O)=O)c1	-2.8%
COC(=O)/C=c1/sc2nc3ccccc3n2c1=O	-17.2%
CCCCCCCCCCCCOCC1CO1 (stereo unspecified)	-5.1%
CC(/C=C/C=C(C)/C=C/C(=O)O)=C\C=C\C=C(C)\C=C\C=C(C)\C=C\C(=O)O	35.5%
O=C(c1cc2nc(-c3ccco3)cc(C(F)(F)F)n2n1)N1CCc2ccccc2C1	19.7%
CCC(Sc1nc2ccccc2s1)C(=O)Nc1nnc(C)s1 (stereo unspecified)	47.4%
COc1ccc(Nc2oc(COc3ccccc3F)nc2C#N)cc1	-10.3%
Cc1ccc(OCc2nc(-c3ccccc3)no2)c(C)c1	-10.0%
CCOC(=O)c1cc2occc2n1CC(=O)N1CCN(C(=O)c2ccco2)CC1	23.3%
CCOC(=O)N1CCN(C(=O)C2CCN(C(=O)c3cc4sccc4n3CC)CC2)CC1	139.1%
CC(C)(C)N=C1NC(=NC(C)(C)C)c2ccccc21	14.6%
COc1cccc(Cn2c(=O)c(-c3cn(C)c4ccccc34)nc3cnc(OC)nc32)c1	-11.1%
O=C(CC1(O)C(=O)Nc2ccccc21)c1ccc2c(c1)OCO2 (stereo unspecified)	-1.9%
CCC(=O)N1CCc2cc(S(=O)(=O)NC(C(=O)NCc3ccc(C)cc3)C(C)C)ccc21 (stereo unspecified)	-1.7%
O=C(NCc1ccc(Cl)cc1)C1CCCN(S(=O)(=O)c2cnc[nH]2)C1 (stereo unspecified)	u
CN(C)CCNC(=O)c1ccc(Cl)s1	-4.4%
COc1ccc(N2Cc3cccc(C(=O)O)c3C2=O)cc1	-12.3%
Cc1ccc(CCN2CC(C(=O)NCCCN3CCOCC3)CC2=O)cc1 (stereo unspecified)	-2.1%
CCOc1ccccc1C(=O)N1CCC(n2nnc3cc(C)ccc32)CC1	61.4%
COc1cc(-c2nc(S(=O)(=O)c3ccc(Cl)cc3)c(N3CCOCC3)o2)cc(OC)c1OC	90.7%
CCN(C(=O)CCc1nc(-c2ccc(OC)cc2)no1)c1cc(OC)ccc1OC	128.4%
Cc1c(C(O)CN2CCN(Cc3ccc4c(c3)OCO4)CC2)c2ccccc2n1C (stereo unspecified)	57.8%
COc1ccc2nc(NC(=O)C3CCN(S(=O)(=O)c4cnc[nH]4)CC3)sc2c1	10.5%
CCCC(C(=O)NC1CCCC1)N(CCCN1CCOCC1)C(=O)c1snc(C(N)=O)c1N (stereo unspecified)	7.6%
CC(C)OC(=O)CSc1nc(N)c(C#N)c(-c2cccs2)c1C#N	-7.6%
COc1ccccc1N1C(=O)CC(Sc2ncccc2C(=O)O)C1=O (stereo unspecified)	4.0%
CCn1ncc(C2=NOC(C(=O)Nc3c(C)n(C)n(-c4ccccc4)c3=O)C2)c1C (stereo unspecified)	3.98µM*[single pt active]
CCCC(=O)Nc1nc(-c2ccc3c(c2)OCCO3)cs1	2.6%
CC1(C)CC2(CC(C)(C)N1)OC(=O)N1CCc3ccccc3C12C (stereo unspecified)	2.1%
CC(C)(CC(=O)O)Cc1nc(-c2ccc(Cl)cc2)no1	3.7%
O=C(/C=C\Nc1ccc2c(c1)OCO2)c1ccccn1	-8.8%
COC(=O)C1C(=O)NC(SC)=C(C#N)C1c1ccccc1 (stereo unspecified)	-15.9%
N#Cc1cc(C(=O)c2cc(Br)ccc2O)cn(C2CC2)c1=O	-13.2%
O=C(NCc1ccccc1Cl)C1CCN(C(=O)c2sccc2-n2cccc2)CC1	25.2%
Cn1cccc1Cc1nnc(SCC(=O)Nc2cccc(F)c2)n1CCc1ccccc1	29.6%
COc1ccc(S(=O)(=O)N(C)CC(=O)N2CCC(C(N)=O)CC2)cc1	-0.8%
CCOC(=O)c1c(C)n(C)c2ccc(OC(=O)c3ccoc3)cc12	25.8%
CCOC(=O)C1CSC(CC(=O)Nc2ccc(Cl)cc2)C(=O)N1 (stereo unspecified)	20.5%
Cc1ccc(S(=O)(=O)NCCCNC(=O)c2ccccc2)cc1	3.9%
COc1cc(C(N)=O)cc(Br)c1OC	3.3%
COc1ccc(N2C(=O)C3CCCN3C2c2ccc(F)cc2)cc1Cl (stereo unspecified)	38.3%
COc1ccc(Cl)cc1C(=O)Nc1ccccc1N1CCN(C)CC1	68.3%
COCc1nc2ccccc2n1Cc1ccccc1Br	67.0%
O=C(O)CCSc1nnnn1-c1ccccc1	0.3%
O=C(Nc1ccc(OC(F)(F)F)cc1)c1cnc2n(c1=O)CCS2	-3.4%
COc1cc(S(=O)(=O)Nc2ncccc2C)c(OC)cc1Cl	-5.4%
CCOC(=O)Nc1cc(C)ccc1OC	-2.0%
COc1ccc(NC(=O)C2C(=O)N(C)C3(C)CC2c2ccccc2O3)cc1 (stereo unspecified)	6.1%
S=C(c1ccc(-c2ccccc2Cl)o1)N1CCOCC1	23.6%
COc1ccc(C(=O)CSc2nccc(=O)[nH]2)cc1	0.7%

# The list goes on; it opens with the 4 that closed the last part.
SMILES	AmpC inh no det
CCOC(=O)Nc1cc(C)ccc1OC	-2.0%
COc1ccc(NC(=O)C2C(=O)N(C)C3(C)CC2c2ccccc2O3)cc1 (stereo unspecified)	6.1%
S=C(c1ccc(-c2ccccc2Cl)o1)N1CCOCC1	23.6%
COc1ccc(C(=O)CSc2nccc(=O)[nH]2)cc1	0.7%
CCCCCCC(C)n1[nH]c(=O)c2c(C)cc(=O)[nH]c21 (stereo unspecified)	-9.3%
N#Cc1c(NC(=O)c2cc(C3CC3)on2)sc2c1CCC2	-10.6%
CCN(CCCNC(=O)CCc1nc(-c2ccc(C)cc2)no1)c1cccc(C)c1	103.1%
O=C1CC(SCc2nc3ccccc3[nH]2)C(=O)N1c1cccc(F)c1 (stereo unspecified)	-8.3%
COc1cc(S(=O)(=O)Nc2cccnc2)ccc1F	-0.1%
O=C(C1CCCCC1)N1CCN(c2ccccc2F)CC1	28.2%
COc1ccccc1-c1ccc2ncnc(N(C)C)c2c1	111.0%
O=C(O)c1cc(NCc2c(F)cccc2Cl)ccc1N1CCOCC1	48.2%
Cc1cc(NC(=O)c2cnn3c(C(F)F)cc(-c4ccccc4)nc23)no1	69.0%
Cc1c(C(=O)O)oc2ccc(S(=O)(=O)NCc3ccccc3)cc12	-8.6%
O=C(NC1CCCCC1)c1cc(-c2ccco2)on1	-17.2%
Cc1nc2sc(C(c3ccco3)N3CCC(C)CC3)c(O)n2n1 (stereo unspecified)	-9.7%
CCCCNC(=O)CCC(=O)Nc1ccc2nc(N3CCOCC3)cc(C)c2c1	25.3%
COc1ccc(C(=O)N2CCC3(CCCN(c4ccccn4)C3)CC2)cc1	86.3%
CC(C)NC(=O)N1CCC2(CC1)CCN(S(=O)(=O)c1ccccc1)CC2	36.1%
Nc1cc(C(Cl)=C(Cl)Cl)c(S(N)(=O)=O)cc1S(N)(=O)=O	-1.1%[12.8 µM]
O=C1Cc2ccccc2C(=O)N1CCc1ccccc1	-14.0%
CN1CCN(c2ncc3nc(-c4cn(C)c5ccccc45)c(=O)n(-c4ccccc4)c3n2)CC1	182.1%
Cc1ccc(C2C(C#N)=C(N)Oc3nc(-c4ccccc4)[nH]c32)o1 (stereo unspecified)	-8.9%
Cc1ccc(S(=O)(=O)c2c(C)nn(C(C)(C)C)c2OC(=O)C(C)(C)C)cc1	59.1%
Cc1cc(C)nc(N2CCC(C(=O)NC3CCCc4ccccc43)CC2)n1 (stereo unspecified)	19.2%
CCOC(=O)N1CCN(C(=O)CS(=O)(=O)c2cn(Cc3ccccc3C)c3ccccc23)CC1	67.5%
CCOC(=O)Cc1nnc(NC(=O)CC)s1	-9.8%
Cc1cccc(C)c1NC(=O)C1(NC(=O)C2CCCN2C(=O)OC(C)(C)C)CCCCC1 (stereo unspecified)	43.8%
O=C(c1cc2ccccc2oc1=O)N(Cc1ccco1)C1CCS(=O)(=O)C1 (stereo unspecified)	-5.9%

# No new results follow: 2 of the compounds above.
SMILES	AmpC inh no det
Cc1nc2sc(C(c3ccco3)N3CCC(C)CC3)c(O)n2n1 (stereo unspecified)	-9.7%
CCCCNC(=O)CCC(=O)Nc1ccc2nc(N3CCOCC3)cc(C)c2c1	25.3%

# Next section
SMILES	AmpC inh no det
CCCn1cc(SCC(=O)Nc2nnc(C)s2)c2ccccc21	-4.4%
C=CCNc1nc(-c2c(C)nc3sccn23)cs1	-1.6%
CCOC(=O)c1c(NC(=O)c2cccs2)sc(C)c1C	3.8%
Cc1ccc2[nH]c(=O)c(COC(=O)c3ccccn3)cc2c1	16.3%
